Screening data: PubChem BioAssay, National Center for Advancing Translational Sciences (NCATS)
GLA inh pH 4.5 = qHTS Assay for Inhibitors of Human alpha-Galactosidase at pH 4.5; Alpha-galactosidase A (Homo sapiens), P06280; purified enzyme, 4-MU-alpha-Gal fluorescence, pH 4.5; activity change, negative = inhibition, % at 105 µM; 230,000 tested, under 10 active; inconclusive = small, poorly fitted or top-dose-only inhibition, or a rising curve; inactive = flat fitted curve, though single readings scatter; no compound was filed as active;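 further: 0% = full activity with enzyme and -100% = basal without enzyme; dose as in the result columns while the protocol names 77 µM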
Target sequence (P06280 whole entry, looked up): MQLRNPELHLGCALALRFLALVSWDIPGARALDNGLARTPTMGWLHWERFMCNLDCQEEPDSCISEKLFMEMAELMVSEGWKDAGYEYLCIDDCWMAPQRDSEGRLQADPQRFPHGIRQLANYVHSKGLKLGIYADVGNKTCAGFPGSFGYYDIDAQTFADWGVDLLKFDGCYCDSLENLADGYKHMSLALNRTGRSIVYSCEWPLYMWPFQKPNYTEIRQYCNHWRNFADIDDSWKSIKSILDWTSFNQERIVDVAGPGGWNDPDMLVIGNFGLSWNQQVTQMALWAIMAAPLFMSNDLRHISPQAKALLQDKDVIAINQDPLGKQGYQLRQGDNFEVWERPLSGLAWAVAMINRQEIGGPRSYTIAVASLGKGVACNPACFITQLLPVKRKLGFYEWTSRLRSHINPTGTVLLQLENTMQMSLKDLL
miR-21 FLuc = qHTS Assay for Modulators of miRNAs and/orActivators of miR-21. Potency, µM (series often up to 38.3 µM), inactives show at the highest dose reporter change, positive = more light. AID 2288, 2010. HeLa miR-21 FLuc reporter, luciferase, 48 h. 340,000 tested, under 10 active; active = well fitted rising curve with a large enough effect; inconclusive = small, poorly fitted or top-dose-only effect; inactive = no such curve, though single readings can be large or run the other way;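 further: % of control where 0% means no effect; miR-21 action dims this reporter so a rising signal means less miR-21 action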
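HeLa cells stably expressing CMV-driven firefly luciferase with a downstream miR-21 binding sequence, endogenously expressing miR-21, were treated with titrations (up to about 40uM final) for 48 hours at 37 degree Celsius. Luciferase luminescence was read after lysis.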
Rango release inh = qHTS Assay for Inhibitors of RanGTP induced Rango (Ran-regulated importin-beta cargo) - Importin beta complex dissociation; Snurportin-1 (Homo sapiens) + GTP-binding nuclear protein Ran (Homo sapiens) + Importin …; Biochemical FRET Rango-importin beta, RanGTP-induced dissociation; Potency, µM (top dose mostly 46.1 µM), for the others: at the top dose activity change, negative = inhibition; 0.071% of 340,000 active; active means falling FRET ratio curve, often poorly fitted, with flat reads before Ran was added; inconclusive means other falling curves, or compound fluorescence or quenching; inactive means flat or rising ratio curve;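 further: potency means the concentration at half of the fitted maximal effect; % of control where 0% means no effect; nearly all actives have a fitted effect of over 45% in size; -100% = wells without RanGTP and RCC1; the record marks most hits as doubtful in a second field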
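Rango (0.1 uM)–importin beta (0.25 uM) complex; RanGTP-RCC1 trigger; 45 min RT; CFP/YFP FRET read.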
Rango complex inh = qHTS Assay for Inhibitors of Rango (Ran-regulated importin-beta cargo) - Importin beta complex formation; Rango CFP/YFP FRET sensor + importin beta, 45 min; Potency, µM (titrated, usually from 92.2 µM), without a hit: at the highest dose inhibition of complex formation; 0.031% of 340,000 active; active = rising FRET ratio curve, often small or poorly fitted; inconclusive = mostly compound fluorescence or quenching in the first reads; inactive = flat curves in all reads;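 further: potency means the concentration at half of the fitted maximal effect; 0% = DMSO wells and 100% = buffer wells lacking importin beta; nearly all actives have a fitted effect of over 15% in size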
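FRET biosensor Rango (snurportin 1 IBB between N-terminal EYFP and C-terminal Cerulean), 50 nM in PBS/1 mM DTT/0.02% Tween-20/0.1% BSA, preincubated 5 min RT with compound; 0.125 microM importin beta added, 45 min RT, CFP/YFP FRET ratio read.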
* = called active by the depositor; u = inconclusive; x = not tested or not shown. A portion of the library. The share of hits here may be higher or lower than overall.

SMILES	GLA inh pH 4.5	miR-21 FLuc	Rango release inh	Rango complex inh
COc1ccc2nc(SCC(C)=O)c(C#N)cc2c1	-4	-62%	-5%	4.6%
O=S(=O)(Cc1ccc(Cl)cc1)N1CCCCCC1	x	-11%	-14%	-3.4%
COc1cccc(-c2nc(CS(=O)(=O)CC(=O)NC3CC3)c(C)o2)c1	x	-1%	-6%	-0.3%
Cc1oc(C(C)(C)C)cc1C(=O)N1CCN(C(c2ccccc2)c2ccccc2)CC1	-19	1%	-11%	-6.1%
Cc1ccccc1-c1cc2nc(C)c(C)c(=O)n2[nH]1	x	-32%	13%	0.9%
O=C(COC(=O)c1ccc(N2CCCC2=O)cc1)Nc1ccccc1	x	x	13%	-3.0%
COc1ccccc1-c1cc(C(=O)Nc2cccnc2)no1	-14	-9%	-1%	1.4%
c1ccc(CSC2=NNC(c3ccccn3)S2)cc1 (centres undefined)	-6	-20%	-3%	1.8%
CCOc1cccc(CNCCSc2nnnn2C)c1	-13	-6%	18%	-1.8%
CNC(=O)c1ccc(-n2nc(C)cc2-c2ccccc2)cc1	1	-9%	18%	0.7%
O=C(Nc1ccccc1C(F)(F)F)c1ncn[nH]1	3	4%	-11%	0.2%
Fc1ccc(N2CCN(/C=C/c3nnnn3-c3ccccc3)CC2)cc1	17	-2%	-8%	4.9%
CCCC(=O)Nc1cccc(NC(=O)c2ccc(C)c([N+](=O)[O-])c2)c1	-4	-6%	-20%	13%
O=C(Nc1c[nH]c(=O)[nH]c1=O)c1ccccc1Cl	x	-4%	0%	-0.1%
O=[N+]([O-])c1cc(-c2ncccn2)cs1	-5	-8%	-6%	-2.6%
CCCC(=N)C1=C(O)CC(CC(C)SCC)CC1=O (centres undefined)	5	-13%	-1%	u
CCOC(=O)C1=C(C)NC(C)=C(C(=O)OCC)C1C(=O)OCC(=O)NCc1ccc(F)cc1	x	x	-14%	-5.8%
COc1ccc(-n2c(SCC(=O)Nc3ccc(C)cc3)nc(O)c(Cc3ccccc3)c2=O)cc1	x	-3%	2%	1.5%
COCCCNC(=S)Nc1ccc(S(=O)(=O)Nc2cc(OC)nc(OC)n2)cc1	x	-3%	6%	5.3%
CCc1cc2c(=O)oc(-c3ccccc3F)nc2s1	x	-14%	-13%	-0.8%

Given in markdown: 2 of the compounds above
| structure | GLA inh pH 4.5 | miR-21 FLuc | Rango release inh | Rango complex inh |
| --- | --- | --- | --- | --- |
| O=C(COC(=O)c1ccc(N2CCCC2=O)cc1)Nc1ccccc1 | x | x | 13% | -3.0% |
| COc1ccccc1-c1cc(C(=O)Nc2cccnc2)no1 | -14 | -9% | -1% | 1.4% |

The list continues.
SMILES	GLA inh pH 4.5	miR-21 FLuc	Rango release inh	Rango complex inh
Cc1ccc(C(=O)OC2CCN(c3ccc([N+](=O)[O-])cc3)CC2)cc1	3	-3%	6%	-0.7%
CC(=O)Nc1ccc(S(=O)(=O)Nc2cc3c(cc2C(C)=O)OCO3)cc1	x	3%	25%	-2.0%
COc1ccc(Cl)cc1C(=O)Nc1ccccc1N1CCCCC1	x	-9%	0%	0.3%
Cc1c(Cl)cccc1NC(=O)CC1SCCNC1=O (centres undefined)	-8	-14%	4%	3.6%
Cc1ccc(S(=O)(=O)N2CCN(C(=O)COC(=O)c3ccccc3OC(F)F)CC2)c(C)c1	x	x	13%	-1.0%
O=C(Nc1ccc(N2CCOCC2)cc1)c1cccc(S(=O)(=O)N2CCCCC2)c1	6	0%	-11%	0.2%
Cc1ccc(NC(=O)N2CCCC2C(=O)NCCc2ccccc2)cc1 (centres undefined)	1	-7%	4%	-0.3%
COC(=O)c1cnn2c(C)c(Cc3cccc(F)c3)c(C)nc12	9	-1%	12%	4.0%
CCCCN(C(=O)c1ccc2c(c1)OCO2)C1CCS(=O)(=O)C1 (centres undefined)	x	x	5%	-0.3%
c1ccc(-c2ncc(CN3CCN(c4ccccn4)CC3)[nH]2)cc1	-4	-8%	11%	-0.7%
Cc1cc(OC(C)C(=O)NC2CC(C)(C)NC(C)(C)C2)c2c(C)cc(=O)oc2c1 (centres undefined)	x	-2%	12%	5.5%
CC(CNC(=O)c1ccccc1Cl)c1ccccc1 (centres undefined)	x	-54%	-30%	-1.4%
CCN(C(=O)COC(=O)CNC(=O)c1ccc(C)c(C)c1)C1CCS(=O)(=O)C1 (centres undefined)	-4	5%	2%	2.6%
CCCCC1(C)OC(=O)C(=Cc2ccc(N(C)C)cc2)C(=O)O1 (centres undefined)	2	2%	4%	0.5%
Cn1cnnc1SCCNS(=O)(=O)c1cccc([N+](=O)[O-])c1	x	-4%	22%	-0.1%
COc1ccc(C2c3[nH]c4ccccc4c3C[C@H]3C(=O)N(C)CC(=O)N23)cc1OC (some centres undefined)	x	-12%	-1%	-2.6%
COCCn1c(C)cc(C(=O)COC(=O)c2ccc(S(=O)(=O)N(C)C)cc2)c1C	x	x	-4%	-0.7%
C/[N+]([O-])=C\c1cccc(OCCN2CCN(c3ncc(C(F)(F)F)cc3Cl)CC2)c1	x	3%	2%	1.1%
CCCCc1nc2sc3c(SCCN(C)C)ncnc3c2c2c1CCC2	-9	-2%	0%	-0.9%
CCCn1nc(-c2nnc(-c3ccc(C)c(C)c3)o2)c2ccccc2c1=O	9	-11%	1%	1.1%

Another view of 4 compounds above:
| compound | GLA inh pH 4.5 | miR-21 FLuc | Rango release inh | Rango complex inh |
| --- | --- | --- | --- | --- |
| c1ccc(-c2ncc(CN3CCN(c4ccccn4)CC3)[nH]2)cc1 | -4 | -8% | 11% | -0.7% |
| Cc1cc(OC(C)C(=O)NC2CC(C)(C)NC(C)(C)C2)c2c(C)cc(=O)oc2c1 (centres undefined) | x | -2% | 12% | 5.5% |
| CC(CNC(=O)c1ccccc1Cl)c1ccccc1 (centres undefined) | x | -54% | -30% | -1.4% |
| CCN(C(=O)COC(=O)CNC(=O)c1ccc(C)c(C)c1)C1CCS(=O)(=O)C1 (centres undefined) | -4 | 5% | 2% | 2.6% |

Carrying on:
SMILES	GLA inh pH 4.5	miR-21 FLuc	Rango release inh	Rango complex inh
CCOc1ccc(NC(=O)NC2CCCCCCC2)cc1	x	-61%	0%	-1.4%
CCC(=O)Nc1cccc(NC(=S)NC(=O)c2ccc(Cl)cc2Cl)c1	0	-28%	-10%	-0.1%
COC(=O)CCCCC(=O)C1C(=O)CC(C)(C)C(C(=O)OC)C1=O (centres undefined)	-4	-10%	17%	0.9%
CCOc1cc(/C=N/NC(N)=O)cc(Br)c1OCC(=O)Nc1ccccc1C	-8	-22%	5%	3.1%
O=c1/c(=C/c2ccc(CNS(=O)(=O)c3ccccc3)o2)sc2n1CCN=2	2	-6%	-22%	-0.8%
CN(C)C(=O)N1CCN(C(=O)c2ccccc2Sc2ccccc2C#N)CC1	2	-5%	-14%	-4.5%
OCCC#Cc1ccc(CN2CCN(Cc3ccsc3)C(CCO)C2)cc1 (centres undefined)	0	-4%	1%	2.2%
CC(C)(C)N1C(=O)c2ccc(C(=O)Nc3ccc(C(=O)O)cc3)cc2C1=O	x	-2%	28%	0.7%
CC(=O)Nc1ccc(NC(=O)Nc2ccc(C)cc2C)cc1	6	-7%	-3%	-2.4%
CCOC(=O)Cn1c2ccc(OC)cc2c2nc3ccccc3nc21	4	0%	-12%	5.4%
COc1cccc(OC)c1C(=O)OCC(=O)N1CC(C)CC(C)C1 (centres undefined)	x	x	-6%	-1.1%
COCCSc1ccccc1C(=O)Nc1ccc([N+](=O)[O-])cc1OC	-4	-6%	0%	-2.7%
S=C(Nc1ccccc1Cl)NC1CCC(NC(=S)Nc2ccccc2Cl)CC1 (centres undefined)	7	5%	2%	2.5%
O=C(Cc1ccc(Cl)cc1)Nc1ccccc1N1CCN(C(=O)c2ccccc2)CC1	x	25%	2%	-1.0%
CC(C)CN(C(=O)CCNC(=O)c1ccc(Cl)cc1)c1c(N)n(CC(C)C)c(=O)[nH]c1=O	x	x	2%	3.0%
COc1cc2cc(C(c3nnnn3Cc3ccc(F)cc3)N3CCCCCC3)c(=O)[nH]c2cc1OC (centres undefined)	14	-4%	-25%	u
COc1ccc(NC(=O)CSc2nccn2Cc2ccccc2)cc1	x	-44%	u	2.7%
COc1cccc(CC(=O)OCC(=O)Nc2c(C)nn(-c3ccccc3)c2C)c1	x	x	-4%	5.9%
O=C(NCC(=O)N1CCC2(CC1)NCCc1[nH]cnc12)c1ccc(Br)cc1	x	0%	5%	0.6%
O=C(CNC(=O)c1ccncc1)N/N=C/c1ccccc1[N+](=O)[O-]	-1	-15%	-13%	4.8%
O=S(=O)(Nc1ccc2c(c1)OCCO2)c1cccc(F)c1	x	1%	-2%	0.4%
COc1ccc(S(=O)(=O)N2CCOCC2)cc1NC(=O)CN1CCC(Cc2ccccc2)CC1	-1	9%	8%	u
O=C(Nc1ccc2c(c1)CCCN2C(=O)c1ccccc1)c1ccccc1	x	-7%	-20%	4.8%
C=CCC[C@@H](Cc1ccc(F)cc1)C(=O)OC[C@H](Cc1c[nH]c2ccccc12)NC(=O)[C@@H](CC=C)CC(=O)N[C@H](CO)Cc1ccccc1	x	x	21%	-0.1%
O=C(Nc1ccc(Br)cc1)c1ccc(-n2cnnn2)cc1	x	-9%	20%	5.4%
COC(=O)c1ccc(C(=O)OC)c(NC(=O)CSc2ccccn2)c1	0	-7%	7%	0.7%
Nc1ncnc(Nc2ccccc2Oc2ccccc2)n1	x	x	-1%	3.4%
Cc1ccccc1CCN(C(=O)Cn1nnc2ccccc21)C(C(=O)NC(C)(C)C)c1ccsc1 (centres undefined)	-2	0%	9%	4.6%
CCN(C(=O)COC(=O)c1ccc(S(=O)(=O)N2CCCc3ccccc32)cc1)C1CCS(=O)(=O)C1 (centres undefined)	-5	-2%	2%	-0.1%
O=C(N/N=C/c1ccc(-c2ccc([N+](=O)[O-])cc2)o1)[C@H]1C[C@@H]1c1ccccc1	2	-1%	u	u
CC(C)(C)c1cc(NC(=O)Nc2ccc(Cl)cc2Cl)no1	-18	-32%	3%	-1.2%
COc1ccc(-n2c(=S)[nH]c3cc(C(=O)NCc4ccc(F)cc4)ccc3c2=O)c(OC)c1	x	13%	-13%	-1.6%
CN(CCc1ccccc1)c1ccc([N+](=O)[O-])cn1	x	-6%	0%	2.1%
CCCCCCC(=O)O	x	x	2%	2.2%
COc1ccc(CCN2CC(C(=O)Nc3ccccc3F)CC2=O)cc1OC (centres undefined)	x	x	4%	0.1%
Cn1c(-c2ccc(Cl)cc2)cnc1N	-5	-16%	6%	1.6%
CC(=O)[C@@H]1[C@@H](C)N(Cc2ccccc2)C(=O)N[C@H]1c1ccccc1	6	x	8%	0.8%
COc1ccc(-n2c(SCC(=O)Nc3ccccc3OC)nc(O)cc2=O)cc1	2	0%	0%	4.1%
O=C(CSc1nnc2c(Cl)cc(Cl)cn12)N1CCN(S(=O)(=O)c2ccccc2)CC1	-2	4%	1%	-1.5%
Cn1c2c(c(=O)n(C)c1=O)C1c3cc(Cl)ccc3OCC1CO2 (centres undefined)	-1	-3%	-4%	2.2%
COc1ccc(-n2c(-c3ccccc3)nnc2-c2ccc(Cl)cc2)cc1	9	-11%	3%	1.0%
COc1ccc2ccccc2c1CN1CCN(C)CC1	-8	-4%	5%	5.4%

Limited to Rango complex inh (6 entries from above):
mol | Rango complex inh
CC(C)(C)c1cc(NC(=O)Nc2ccc(Cl)cc2Cl)no1 | -1.2%
CN(CCc1ccccc1)c1ccc([N+](=O)[O-])cn1 | 2.1%
C=CCC[C@@H](Cc1ccc(F)cc1)C(=O)OC[C@H](Cc1c[nH]c2ccccc12)NC(=O)[C@@H](CC=C)CC(=O)N[C@H](CO)Cc1ccccc1 | -0.1%
CCN(C(=O)COC(=O)c1ccc(S(=O)(=O)N2CCCc3ccccc32)cc1)C1CCS(=O)(=O)C1 (centres undefined) | -0.1%
Cn1c2c(c(=O)n(C)c1=O)C1c3cc(Cl)ccc3OCC1CO2 (centres undefined) | 2.2%
COc1ccc(CCN2CC(C(=O)Nc3ccccc3F)CC2=O)cc1OC (centres undefined) | 0.1%
